Screens from PubChem BioAssay.
KCNQ2 inh = KCNQ2 potassium channel inhibitors, primary screen, cell-based, CHO-K1, FluxOR thallium flux, B-score (AID 2156). O88943. 20 min; stronger effect = lower value; only compounds with negative scores are shown here; some inactives read as strong as hits. B-score at 10 µM. 1.1% of 310,000 active;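 active = fluorescence ratio B-score at most minus 3 library SDs, with starting brightness B-score within 2 library SDs, cut at about -5.5 in these data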
Target sequence (O88943 whole entry, looked up): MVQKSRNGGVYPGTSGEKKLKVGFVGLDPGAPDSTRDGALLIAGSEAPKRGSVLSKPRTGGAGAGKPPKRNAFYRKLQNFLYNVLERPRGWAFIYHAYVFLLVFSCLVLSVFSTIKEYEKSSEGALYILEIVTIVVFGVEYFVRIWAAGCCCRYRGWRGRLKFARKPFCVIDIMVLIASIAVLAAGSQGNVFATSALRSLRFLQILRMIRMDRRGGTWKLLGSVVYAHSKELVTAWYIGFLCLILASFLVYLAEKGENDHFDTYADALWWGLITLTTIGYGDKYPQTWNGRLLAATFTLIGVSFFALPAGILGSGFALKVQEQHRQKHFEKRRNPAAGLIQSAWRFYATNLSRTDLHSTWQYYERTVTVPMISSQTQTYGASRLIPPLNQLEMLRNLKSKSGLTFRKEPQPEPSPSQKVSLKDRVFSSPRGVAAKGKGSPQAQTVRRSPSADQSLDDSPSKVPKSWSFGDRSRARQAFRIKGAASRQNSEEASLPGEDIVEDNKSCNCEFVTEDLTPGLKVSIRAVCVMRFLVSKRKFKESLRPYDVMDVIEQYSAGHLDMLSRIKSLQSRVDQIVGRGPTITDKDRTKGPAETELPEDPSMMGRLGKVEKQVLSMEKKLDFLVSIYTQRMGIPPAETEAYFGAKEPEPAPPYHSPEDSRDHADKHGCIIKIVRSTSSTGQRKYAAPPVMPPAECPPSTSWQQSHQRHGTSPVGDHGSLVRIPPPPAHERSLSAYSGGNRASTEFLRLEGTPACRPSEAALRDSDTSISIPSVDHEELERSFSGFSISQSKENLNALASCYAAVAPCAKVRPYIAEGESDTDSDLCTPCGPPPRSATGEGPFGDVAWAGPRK
KCNQ2 inh baseline = further read-out of KCNQ2 inh, marked with its call; B-score; measured here: initial fluorescence intensity artifact check;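 brightness before thallium and not channel activity; 0 = typical well and far values either way flag optical interference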
Active calls of the source: *; i = inactive.

Results follow in this order: KCNQ2 inh	KCNQ2 inh baseline
CCOC(=O)C1CCCN(CC(=O)Nc2nc(-c3ccccc3)cs2)C1 (stereo unspecified)
→ i	0.85
Cc1ccc(C(=O)N/N=C\c2cc3c(cc2Br)OCO3)s1
→ i	0.36
O=C(COc1cccc2ccccc12)NNC(=O)c1cccs1
→ i	0.09
N#Cc1ccc(CSc2nnc(NC(=O)CCc3nc4ccccc4c(=O)[nH]3)s2)cc1
→ i	0.56
O=c1[nH]c2ccc(Cl)cc2c(-c2ccccc2)c1SC(=S)N1CCCCC1
→ i	1.5
CC(C(=O)c1ccc(-c2ccccc2)cc1)[n+]1cccc(C(N)=O)c1 (stereo unspecified)
→ i	0.02
O=C(COC(=O)[C@@H]1CCCN1C(=O)c1cccs1)Nc1ccc(F)cc1[N+](=O)[O-]
→ i	1.2
CCn1c(=S)sc2c(=O)[nH]c(C)nc21
→ i	0.19
Fc1cccc(Cl)c1CSc1nnnn1-c1ccc2c(c1)OCO2
→ i	0.11
CCc1ccc(NC(=O)c2c(C(=O)Nc3ccccc3)sc3nc(C)cc(=O)n23)cc1
→ i	-1.6
COc1ccccc1N1CCN(C(=O)CN(C)S(=O)(=O)c2cc(C)ccc2OC)CC1
→ i	0.03
CC(NC(=O)Cn1nc(-c2ccccc2)ccc1=O)c1ccccc1 (stereo unspecified)
→ i	-1.1
COc1ccc(OCc2nc(C#N)c(NCCCn3ccnc3)o2)cc1
→ i	2.6
O=C(Nc1ccc(S(=O)(=O)Nc2nccs2)cc1)C1CCCCC1
→ i	-1.9
O=C(NCc1ccccn1)C1CC(=O)N(C2CCCC2)C1 (stereo unspecified)
→ i	-0.72
CCC1(C)CC2(CCCN(CCC(O)(c3ccccc3)c3ccccc3)C2)CCO1 (stereo unspecified)
→ i	-1.2
Cc1ccc(C(=O)N/C(=C/c2ccc(-c3ccc([N+](=O)[O-])cc3)o2)C(=O)NCCCN(C)C)cc1
→ i	0.54
Cc1ccc(-c2noc(CCC(=O)Nc3cc(C)ccn3)n2)cc1
→ i	0.79
CC1CCCCC12NC(=O)N(CC(=O)NC(=O)Nc1ccc3c(c1)OCCO3)C2=O (stereo unspecified)
→ i	-0.59
COc1ccc(C)cc1NC(=O)C(OC(=O)c1cc(C)oc1C)c1ccccc1 (stereo unspecified)
→ i	0.82
Nc1cc(Cl)ccc1C(=O)OCC(=O)NC1CCCCC1
→ i	-1.1
Cc1occc1C(=O)N(C)Cc1nc(-c2ccc(Cl)cc2)no1
→ i	-0.15
OCC[C@H]1C[C@H](O)[C@@H](O)[C@@]2(CCCO2)O1
→ i	0.65
O=C(COC(=O)Cc1ccccc1[N+](=O)[O-])NCC1CCCCC1
→ i	1.3
O=C(COC(=O)c1ccc(Br)o1)NCCc1ccccc1
→ i	0.01
CCN1CCN(c2nc3c(C)cccn3c(=O)c2C=C(C#N)C#N)CC1
→ i	2.4
C=CCn1c(SCC(=O)Nc2ccccc2OC)nc2c([nH]c3ccccc32)c1=O
→ i	0.31
CCCCn1c(SCC(=O)NCc2ccco2)nnc1-c1ccco1
→ i	0.47
Cc1ccc(NC(=O)CN(c2ccccc2F)S(C)(=O)=O)cc1
→ i	0.73
CSCCC(NC=C1C(=O)OC(C)(C)OC1=O)C(=O)O (stereo unspecified)
→ i	0.63

Reformatted as labelled records: four of the compounds above
Nc1cc(Cl)ccc1C(=O)OCC(=O)NC1CCCCC1
  KCNQ2 inh: i; KCNQ2 inh baseline: -1.1
Cc1occc1C(=O)N(C)Cc1nc(-c2ccc(Cl)cc2)no1
  KCNQ2 inh: i; KCNQ2 inh baseline: -0.15
OCC[C@H]1C[C@H](O)[C@@H](O)[C@@]2(CCCO2)O1
  KCNQ2 inh: i; KCNQ2 inh baseline: 0.65
O=C(COC(=O)Cc1ccccc1[N+](=O)[O-])NCC1CCCCC1
  KCNQ2 inh: i; KCNQ2 inh baseline: 1.3

Next section
Results follow in this order: KCNQ2 inh	KCNQ2 inh baseline
COc1ccc2[nH]cc(CCNC(=O)COc3cc(C)cc4oc(=O)cc(C)c34)c2c1
→ i	-1
Cc1cccc(C)c1OCCNC(=O)c1ccc2ccccc2n1
→ i	0.14
CCOc1ccccc1N1CCN(C(=O)c2cccc(-c3ccc(O)cc3)c2)CC1
→ i	-2
COc1cc(C(Nc2ccccn2)c2c(NC(=O)c3ccco3)sc(C)c2C)cc(OC)c1OC (stereo unspecified)
→ i	0.56
Cc1ccc[n+](CC(=O)c2ccccc2)c1
→ i	-0.45
COc1ccc(CN(C)C(=O)C2CCN(C(=O)Nc3ccccc3)CC2)cc1
→ i	0.3
CN(C)C(=O)C1C2NC(=S)N(c3ccc(Cl)cc3)C1(C)Oc1ccc(Cl)cc12 (stereo unspecified)
→ i	-1.4
Cc1ccc(S(=O)(=O)N2CCOCC2)cc1C(=O)OC1CCCCC1=O (stereo unspecified)
→ i	0.17
COc1ccc(COC(=O)C2=C(C)NC(=O)NC2c2ccc(OC)cc2)cc1 (stereo unspecified)
→ i	0.52
O=C1CN(C(=O)CNCc2cccc(Cl)c2)c2ccccc2N1
→ i	1.4
CC(=O)Nc1ccccc1-c1nnn(CC(=O)Nc2ccc3c(c2)OCCO3)n1
→ i	1.3
C=CCNC(=S)N1CCN(c2cc3c(cc2F)c(=O)c(C(=O)O)cn3CC)CC1
→ i	-0.11
O=C(NCc1cccs1)c1ccc(Cl)c(S(=O)(=O)N2CCCC2)c1
→ i	-0.97
COc1ccccc1N(CC(=O)NCCSCc1ccco1)S(=O)(=O)c1ccccc1
→ i	-0.24
CC1(C)CC(=O)C(C=NCCN2CCNCC2)=C(O)C1
→ i	0.03
CC1CCCN(C(=O)CSc2nc3ccccc3o2)C1 (stereo unspecified)
→ i	-0.91
Cc1cccc(NC(=O)C(=O)NCC2CCCN2S(=O)(=O)c2cccs2)c1C (stereo unspecified)
→ i	-0.6
COCCCNC(=O)Nc1ccc(F)cc1F
→ i	0.64
O=C(Nc1ccc(O)c2c(=O)cc(-c3cccc(Cl)c3)oc12)c1ccccc1Cl
→ i	1.3
O=C(CCCc1ccccc1)Nc1ccnn1C1CCN(Cc2ccccc2)CC1
→ i	-0.53
Cc1cc(C)n2nc(C(=O)NNC(=O)c3ccccc3)nc2n1
→ i	0.48
O=C1CC(Sc2ncccn2)C(=O)N1c1ccccc1 (stereo unspecified)
→ i	0.09
Cc1ccc(-c2cc(C(=O)N3CC4(C)CC3CC(C)(C)C4)no2)cc1 (stereo unspecified)
→ i	-0.39
COc1ccc(COc2ccccc2C(=O)Nc2ccccn2)cc1[N+](=O)[O-]
→ i	0.52
CCC(C)(C)NC(=O)C(C(C)C)N(CC1CCCO1)C(=O)CNS(=O)(=O)c1ccccc1 (stereo unspecified)
→ i	-0.01
Nc1ccc(-c2nc3ccc(N)cc3o2)cc1
→ i	0.31
O=C(N/N=C/c1ccc(F)cc1)c1cc(-c2ccc3c(c2)OCO3)n[nH]1
→ i	0.99
O=C(CN(Cc1ccccc1)S(=O)(=O)c1ccc(F)cc1)NCCC1=CCCCC1
→ i	-1.1
CN(Cc1ccccc1)C(=O)COc1cc(=O)n(C)c2ccccc12
→ i	1.3
O=c1cc(N=Nc2ccc(Cl)cc2)[nH]c(=O)[nH]1
→ i	-0.18
Cc1nn(C)cc1/C=N/NC(=O)c1ccco1
→ i	1
Cc1ccc(CNCC(=O)Nc2ccc(C)cc2Br)cc1
→ i	1.2
CC(=O)c1ccc(NC(=S)N(C)C2CCN(C)CC2)cc1
→ i	0.7
COC(=O)c1ccc(N2C(=O)CC(N3CCOCC3)C2=O)cc1 (stereo unspecified)
→ i	-0.06
Cc1ccccc1NC(=O)Cn1cccc1
→ i	0.33
O=C(N/N=C\c1c(F)c(F)c(F)c(F)c1F)c1ccc(-c2ccccc2)cc1
→ i	-0.22
C1CCN=C(NC23CC4CC(CC(C4)C2)C3)CC1
→ i	0.81
COc1ccc(C(=O)C2CCCN(C(=O)C3=CCCC3)C2)c(C)c1 (stereo unspecified)
→ i	-1.8
COc1cc(C(=O)Nc2ccc3c(c2)C(=O)N(CCC(=O)O)C3=O)cc(OC)c1OC
→ i	1.1
COc1cccc2[nH]c3c(N4CCC(C)CC4)ncnc3c12
→ i	0.39
CCN(C(=O)COc1cc(=O)n(C)c2ccccc12)c1cccc(Cl)c1
→ i	0.32
Oc1ccc(C[C@@H]2CNCCN2CCCCC2CCCCC2)cc1
→ i	1.5
CC(CNC(=O)CCS(=O)(=O)c1ccc2c(c1)NC(=O)CO2)c1ccccc1 (stereo unspecified)
→ i	-0.23
COc1ccc(C(=O)NCCSCc2ccccc2)cc1OC
→ i	0.63
COc1cccc(C(=O)N/N=C(\C)c2ccc(NC(=O)Cc3ccccc3)cc2)c1OC
→ i	0.43
CC1Oc2ccccc2OC1C(=O)Nc1ccccn1 (stereo unspecified)
→ i	1
O=C(Cc1cccc2ccccc12)NCC1CCCO1 (stereo unspecified)
→ i	-0.36
Cc1ccn2c(NC(=O)C(C)(C)Oc3ccc(Cl)cc3)c(-c3cccs3)nc2c1
→ -6.4*	0.48*
CCOC(=O)Cc1nn[nH]n1
→ i	0.22
COc1ccc(Br)cc1[C@H]1[C@H]2C=CC[C@@H](C)[C@@H]2C(=O)N1Cc1ccccc1
→ i	-0.17

The results go on:
Results follow in this order: KCNQ2 inh	KCNQ2 inh baseline
CCOC(=O)c1c(NC(=S)N2CCOCC2)sc(C)c1C
→ i	-0.3
Cc1ccc(S(=O)(=O)N2CCN(c3ccccc3)CC2)c(C)c1
→ i	-1.2
COCCCNc1nc2nonc2nc1N1CCN2CCCC2C1 (stereo unspecified)
→ i	-2.2
Cc1cccc(N2CCN(S(=O)(=O)c3ccc4c(c3)CCC(=O)N4)CC2C)c1 (stereo unspecified)
→ i	0.61
CCN(CC)C(=O)Cn1cc(C(=O)C(=O)Nc2ccc3c(c2)OCCO3)c2ccccc21
→ i	-0.44
CC1(C)CN2C(=S)N(c3ccccc3)C(c3ccccc3)N2C1 (stereo unspecified)
→ -5.6*	-1.6*
COc1ccc(-c2nc(CN3CCN(C(=O)c4ccco4)CC3)c(C)o2)c(OC)c1C
→ i	-0.97
CCOC(=O)c1ccc(-n2c(C)nc3ccc(Br)cc3c2=O)cc1
→ i	0.07
Cc1c(C(=O)Nc2ccccn2)oc2c(Cl)cccc12
→ i	3.7
CCN(CC)CCNC(=O)Cn1c(=O)c2cccn2c2ccc(F)cc21
→ i	-0.35
CCn1c(=O)cc(C(=O)OC)sc1=Nc1ccc(F)c(F)c1
→ i	-3.7
CN(Cc1c(F)cccc1Cl)c1nnnn1-c1ccccc1
→ i	-1.5
Cc1nc(SCc2ccccc2F)c2oc3ccccc3c2n1
→ i	-0.21
CCCS(=O)(=O)c1nc(S(=O)(=O)c2ccc(C)cc2)c(NCc2ccccn2)s1
→ i	-0.15
O=C(CCC(=O)N1CCN(c2ccccn2)CC1)Nc1nnc(C2CCCCC2)s1
→ i	0.46
CCc1ccc2nc3n[nH]c(N)c3cc2c1
→ i	-0.52
Cc1ccc(N2CCN(c3ccc(NCc4nc5ccccc5n4C)cc3)CC2)cc1
→ i	-1.9
Brc1cccc(-c2nc3cccnc3nc2-c2cccc(Br)c2)c1
→ i	1.2
CCN(c1ccccc1)S(=O)(=O)c1ccc(OC)c(N=N/C(C(=O)Nc2ccccc2)=C(/C)O)c1
→ i	1.6
O=C(O)C(O)c1ccccc1 (stereo unspecified)
→ i	0.75

Full records as entered above. Order of screens: KCNQ2 inh	KCNQ2 inh baseline
Profile of `O=C(O)C(O)c1ccccc1` (stereo unspecified) → i	0.75
Profile of `CN(Cc1c(F)cccc1Cl)c1nnnn1-c1ccccc1` → i	-1.5

The results go on:
Results follow in this order: KCNQ2 inh	KCNQ2 inh baseline
CCN(C(=O)Cn1cnc2ccccc2c1=O)C1CCS(=O)(=O)C1 (stereo unspecified)
→ i	-0.45
COc1ccccc1/C=C/C=N/n1c(-c2ccc(F)cc2)n[nH]c1=S
→ i	-0.88
Cc1ccc(-n2cc(CN3CCN(Cc4nccn4C)CC3)c(-c3cccc(C)c3)n2)cc1
→ i	1.1
Cc1cc(OCc2cc(C(=O)N(C)CCOc3ccccc3)no2)cc(C)c1Cl
→ -5.7*	0.19*
Cc1cccc(C(C)C)c1NC(=O)COC(=O)CNS(=O)(=O)c1ccccc1
→ i	0.76
CCc1ccc(N2CC(C(=O)NC3CCCCC3C)CC2=O)cc1 (stereo unspecified)
→ i	-1.3
COc1cc(NC(=S)N(C)C)c(OC)cc1Cl
→ i	-2.5
COCCCNC(=O)CC(NS(=O)(=O)c1ccc(C)cc1)c1ccco1 (stereo unspecified)
→ i	1.2
CC1CCC(NC(=O)c2cc3c(=O)n(C)c4ccccc4c3n2C)CC1 (stereo unspecified)
→ i	0.11
O=C(/C=C\Nc1ccc(Cl)cn1)c1ccc(Br)cc1
→ i	0.95
Cc1ccc(S(=O)(=O)N(C)C)cc1NC(=O)c1cc(C(C)(C)C)nn1Cc1ccccc1
→ i	0.04
COc1ccc(C(C)=O)cc1CSc1nnnn1-c1ccc(O)cc1
→ i	-2.9
Cc1nc2ncnn2c(C)c1CCC(=O)NCc1ccc2c(c1)OCO2
→ i	-1.9
COc1ccc2[nH]cc(C=O)c2c1
→ i	-3.3
COCCCNC(=O)c1c[nH]c2ccc(S(=O)(=O)N(C)c3ccccc3C)cc2c1=O
→ i	1.6
O=C(Nc1cccc(F)c1)C1CCN(C(=O)c2ccco2)CC1
→ i	0.59
CC(=O)N1CCOc2cc(S(=O)(=O)N3CCN(c4ccccc4)CC3)c(Cl)cc21
→ i	1.9
Cc1cccc(NC(=O)/C(C#N)=C\c2cccnc2)c1
→ -6.5*	1.7*
CCOc1ccc(/C=C/C(=O)NCCc2ccc(OC)c(OC)c2)cc1
→ i	0.87

Not all compounds are listed, so the mix of outcomes need not match the whole.
